Bioassay records from PubChem BioAssay.
eIF4H FP inh: human eIF4H binding inhibitors, primary screen, translation initiation inhibitor project, biochemical, uHTS, fluorescence polarization; Eukaryotic translation initiation factor 4H (Homo sapiens), Q15056; inhibition, % at 35 µM; actives 0.94% (n = 290,000); eIF4H fluorescence polarization binding assay;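 active = 50% or more with normal probe brightness, or confirmed in later tests; about a fifth of its hits are not listed in these tables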;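 note: calls also rest on retests at 20 µM and on dose response follow-up; 0% = protein and probe with vehicle and 100% = probe without protein; strong numbers were not always called active; many hits fall short of the cut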
CSC inhib: cancer stem cell viability inhibitors, primary screen, luminescence | AID 2717, 2010 | inhibition, % at 7.5 µM | actives 1.1% (n = 300,000) | cancer stem cell-like cells viability;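 active = mean at 75% or more and at least half the replicates too; tested in HMLE shEcad cells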;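 note: 0% = median of negative and 100% = median of positive control wells; the first replicate is given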
MT1-MMP act inh: blockers of MT1-MMP proenzyme processing, primary screen, HT1080 RFP-PRO-GFP cells, GFP/RFP fluorescence | Matrix metalloproteinase-14 (Homo sapiens), P50281 | GFP/RFP ratio fluorescence, overnight; percent of plate control window, DMSO zero | GFP/RFP ratio change, % at 20 µM | actives 0.061% (n = 360,000);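 active = GFP/RFP ratio change of at least 30% with cell ATP level not reduced by more than half and red fluorescence within 50% of control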; note: strong numbers were not always called active
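Material: RFP-PRO-GFP reporter HT1080 cells. Dosing: single-point 20 µM compound, 1% DMSO. Controls: DMSO and RFP-L50D-GFP cell wells. Timing: cells overnight before dosing, compound overnight, 37 °C, 5% CO2. Measure: GFP/RFP fluorescence ratio.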
HIV Env fusion: inhibitors of HIV-1 Env-driven cell-cell fusion, primary screen, HeLa-JRFL effector, CEM21 target cells, luciferase | inhibition, % at 12.3 µM | actives 1.1% (n = 360,000);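 active = mean replicate inhibition score of at least 50 and every replicate individually at or above 50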;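 note: 0% = plate neutral controls and 100% = maraviroc near 300 nM; one replicate is shown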
UUG fidelity: modulators of yeast start codon fidelity, primary screen, whole organism, S. cerevisiae, single point, plate reader; actives 0.13% (n = 350,000); S. cerevisiae UUG-firefly luciferase reporter, luminescence/redox ratio; activity score, % at 18.7 µM;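 active = replicate mean at a twofold rise or more, about +100% in these data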;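 note: firefly luciferase made from a UUG start codon reports start codon fidelity; reporter light over untreated wells divided by growth signal over untreated wells; some hits fall short of that in this replicate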
Rce1 inhib: yeast Rce1p protease inhibitors, primary screen, biochemical, fluorescence, cell-free homogeneous. CAAX prenyl protease 2 (Saccharomyces cerevisiae (strain ATCC 204508 / S288c)), Q03530. yeast membranes, quenched prenylated peptide cleavage fluorescence. calls only. actives 0.27% (n = 290,000). AID 2563, 2010;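 active = fall in fluorescence gain of 50% or more versus controls, with final raw signal at or below 3038400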;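 note: plate controls were neutral control wells for no effect and wells lacking membranes for full effect; tested at 10 µM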
Target sequence (Q03530 whole entry, looked up): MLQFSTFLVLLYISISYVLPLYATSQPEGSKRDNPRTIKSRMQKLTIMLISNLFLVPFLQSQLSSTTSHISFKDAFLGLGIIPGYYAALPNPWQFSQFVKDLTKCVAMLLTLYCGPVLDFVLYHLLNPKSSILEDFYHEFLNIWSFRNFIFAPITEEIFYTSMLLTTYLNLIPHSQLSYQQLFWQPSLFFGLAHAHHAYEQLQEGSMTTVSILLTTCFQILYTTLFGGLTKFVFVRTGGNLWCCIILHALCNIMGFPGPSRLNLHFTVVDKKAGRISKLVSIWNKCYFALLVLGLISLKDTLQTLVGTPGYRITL
PABP polyA inh: PABP poly(A) RNA binding inhibitors, primary screen, biochemical, fluorescence polarization, uHTS; actives 1% (n = 290,000); Polyadenylate-binding protein 1 (Homo sapiens), P11940; inhibition, % at 35 µM;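 active = 50% or more with normal probe brightness, or confirmed in later tests; about a fifth of its hits are not listed in these tables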;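 note: calls also rest on retests at 20 µM and on dose response follow-up; controls were probe without protein and protein plus probe with vehicle; some compounds called inactive have numbers as strong as hits; many hits fall short of the cut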
eIF4H FP inh retest: recorded beside eIF4H FP inh, whose call it bears; inhibition, %; compound at 20 µM; confirmation average;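 mean of two retest wells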
PABP polyA inh retest: second read-out of PABP polyA inh, no call of its own (marks repeat the call); inhibition, %; compound at 20 µM; confirmation repeats;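 mean of two retest wells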
MT1-MMP act inh RFP: also measured in MT1-MMP act inh; calls as there; RFP signal change, %; measured here: RFP expression control read;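 0 = vehicle wells; hits needed this value within 50% of zero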
* marks the source's active call; other numbers are inactive results; i = inactive; . = not tested or not shown; & = joins results of further samples.

SMILES	eIF4H FP inh	CSC inhib	MT1-MMP act inh	MT1-MMP act inh RFP	HIV Env fusion	UUG fidelity	Rce1 inhib	PABP polyA inh	others
Cc1csc(NC(=O)c2cccc(C)c2C)n1	6	13	2	0	.	.	i	2
C#CCOCCOCCOCCNc1nc(N2CCN(C(=O)CCCCCCCCCCNC(=O)[C@@H](CCSC)n3cc(CCO)nn3)CC2)nc(N2CCN(C(=O)CCCCCCCCCCNC(=O)[C@H](CCSC)n3cc(CCO)nn3)CC2)n1	.	-9	5	4	.	-6	.	.
CSc1ccccc1OCc1cc(C(=O)N(C)Cc2ccc(C)o2)no1	-2	9	-2	0	-39	9	i	8
O=C(C1CCN(S(=O)(=O)c2cccc3cccnc23)CC1)N1CCc2ccccc21	-5	-9	3	1	0	-2	i	-3
Cc1ccc(N(C(C)C(=O)N2CCC(C)CC2)S(C)(=O)=O)cc1C (stereo not given)	1	5	-3	-2	.	-11	i	-2
O=C(NNS(=O)(=O)c1ccccc1Cl)c1nn(-c2ccc(F)cc2)ccc1=O	-10	-5	1	3	5	-9	i	-1
C[C@H](CO)N1C[C@H](C)[C@@H](CN(C)Cc2ccc(Cl)c(Cl)c2)OCc2cnnn2CCCC1=O	.	.	-6	-2	-15	-12&-7	.	.
CN(c1ccc(C(=O)Nc2ccc3c(c2)OCCO3)cc1)S(C)(=O)=O	-10	-8	-2	-2	.	-19	i	5
CC[C@@]1(O)C(=O)OCc2c1cc1n(c2=O)Cc2cc3c(N)cccc3nc2-1	92*	56	-4	-9	68*	-13	i	29*	eIF4H FP inh retest=113*;PABP polyA inh retest=58*
CC1(C)NC(=O)N(CC(=O)N2CCCC(C(F)(F)F)C2)C1=O (stereo not given)	.	-7	2	3	3	.	i	.
O=[N+]([O-])c1cccc(-c2nnc3ccc4ccccc4n23)c1	-3	.	1	1	.	-3	i	-2
CC(C)=NNC(=O)c1c(O)c2ccccc2[nH]c1=O	-8	10	-3	-4	-9	.	i	3
Cc1c(C(=O)N2CCc3ccccc32)cnn1C	1	9	3	-2	6	.	i	-1
CCn1cc([N+](=O)[O-])c(C(=O)Nc2nc(-c3ccc(C)cc3)c(C)s2)n1	-4	102*	-3	3	.	.	i	3
CCNC(=O)CCSc1nnc(-c2ccco2)o1	-4	-14	-1	3	6	.	i	-6
COc1ccc(-c2nc(SC(CC(=O)NCCO)c3cccs3)n[nH]2)cc1 (stereo not given)	5	-9	4	3	-4	.	i	14
CC(C)C(C(=O)NCc1ccco1)N(Cc1ccco1)C(=O)CNS(=O)(=O)c1ccc(F)cc1 (stereo not given)	-11	-8	-1	0	2	-5	i	5
O=C(O)c1ccccc1-c1ccccc1C(=O)Nc1ccc2oc(=O)c3ccccc3c2c1	.	.	-2	0	17	-15	.	.
CC(=O)/C(=N\Nc1ccccc1)Sc1nnc(-c2ccccc2)n1-c1ccccc1	8	.	0	-2	-9	.	i	10
CCOC(=O)c1cc(-c2ccccc2)sc1NC(=O)CN1C(=O)NC(CC)(c2ccc(F)cc2)C1=O (stereo not given)	-10	-5	-10	-10	-17	.	i	-6

Sorted by molar mass (low to high): 6 of the compounds above.
SMILES	eIF4H FP inh	CSC inhib	MT1-MMP act inh	MT1-MMP act inh RFP	HIV Env fusion	UUG fidelity	Rce1 inhib	PABP polyA inh	others
Cc1csc(NC(=O)c2cccc(C)c2C)n1	6	13	2	0	.	.	i	2
Cc1ccc(N(C(C)C(=O)N2CCC(C)CC2)S(C)(=O)=O)cc1C (stereo not given)	1	5	-3	-2	.	-11	i	-2
CC[C@@]1(O)C(=O)OCc2c1cc1n(c2=O)Cc2cc3c(N)cccc3nc2-1	92*	56	-4	-9	68*	-13	i	29*	eIF4H FP inh retest=113*;PABP polyA inh retest=58*
CSc1ccccc1OCc1cc(C(=O)N(C)Cc2ccc(C)o2)no1	-2	9	-2	0	-39	9	i	8
O=C(NNS(=O)(=O)c1ccccc1Cl)c1nn(-c2ccc(F)cc2)ccc1=O	-10	-5	1	3	5	-9	i	-1
C#CCOCCOCCOCCNc1nc(N2CCN(C(=O)CCCCCCCCCCNC(=O)[C@@H](CCSC)n3cc(CCO)nn3)CC2)nc(N2CCN(C(=O)CCCCCCCCCCNC(=O)[C@H](CCSC)n3cc(CCO)nn3)CC2)n1	.	-9	5	4	.	-6	.	.

4 records picked at random from the list so far, as already listed:
SMILES	eIF4H FP inh	CSC inhib	MT1-MMP act inh	MT1-MMP act inh RFP	HIV Env fusion	UUG fidelity	Rce1 inhib	PABP polyA inh	others
CC(C)C(C(=O)NCc1ccco1)N(Cc1ccco1)C(=O)CNS(=O)(=O)c1ccc(F)cc1 (stereo not given)	-11	-8	-1	0	2	-5	i	5
COc1ccc(-c2nc(SC(CC(=O)NCCO)c3cccs3)n[nH]2)cc1 (stereo not given)	5	-9	4	3	-4	.	i	14
CN(c1ccc(C(=O)Nc2ccc3c(c2)OCCO3)cc1)S(C)(=O)=O	-10	-8	-2	-2	.	-19	i	5
O=C(NNS(=O)(=O)c1ccccc1Cl)c1nn(-c2ccc(F)cc2)ccc1=O	-10	-5	1	3	5	-9	i	-1

(list continues)
SMILES	eIF4H FP inh	CSC inhib	MT1-MMP act inh	MT1-MMP act inh RFP	HIV Env fusion	UUG fidelity	Rce1 inhib	PABP polyA inh	others
CC(C)Oc1cccc(C(=O)Nc2nnc([C@H]3C[C@H](O)[C@@H](CO)O3)s2)c1	.	.	-3	5	-5	-1	.	.
CCOc1cc(S(=O)(=O)NCC2CCCO2)ccc1F (stereo not given)	-5	-3	2	3	15	-15	i	13
C/C(CC(=O)NCc1ccco1)=N\NC(=O)Cc1cccc2ccccc12	3	20	7	7	.	-5	i	11
CCN(CC(=O)NCCc1ccc(S(N)(=O)=O)cc1)Cc1nc2cc(OC)c(OC)cc2c(=O)[nH]1	5	1	0	0	.	.	i	-3
COc1ccc(Cl)cc1NC(=O)C1CCN(S(C)(=O)=O)CC1	-8	-1	0	2	3	-5	i	1
O=C(OCc1c(Cl)cccc1Cl)c1ccncc1	0	5	-3	-1	.	.	i	-3
COC(=O)C(C)N(C(=O)c1ccc(C(=O)c2ccccc2)cc1)c1c(C)cccc1C (stereo not given)	-10	-6	-16	-17	25	17	i	-5
CC(=O)N(c1c(C)n(C)n(-c2ccccc2)c1=O)C1(C(=O)NC2CCCCC2)CCCCC1	-4	-15	-2	3	-96	-14	i	-5
Cc1ccccc1S(=O)(=O)Cc1ccc(C(=O)NCCCN2CCN(C)CC2)o1	-3	-7	8	3	-138	3	i	18
O=C(O)c1ccc2c(c1)S(=O)(=O)c1cc(Cl)ccc1C2=O	.	-19	1	3	6	2	.	.
COCCn1c(NCc2ccco2)nc2c1c(=O)[nH]c(=O)n2C	-2	4	4	9	2	.	i	1
Cc1cccc(Nc2ncnc3nc[nH]c23)c1	9	19	2	0	-9	-27	i	-3
CCCN1Cc2cccc(C(=O)N3CCN(c4ccccc4)CC3)c2C1=O	-16	-8	4	5	15	-42	i	-7

Compounds shown so far with a thiophene ring, fused or not, in the order listed:
SMILES	eIF4H FP inh	CSC inhib	MT1-MMP act inh	MT1-MMP act inh RFP	HIV Env fusion	UUG fidelity	Rce1 inhib	PABP polyA inh	others
COc1ccc(-c2nc(SC(CC(=O)NCCO)c3cccs3)n[nH]2)cc1 (stereo not given)	5	-9	4	3	-4	.	i	14
CCOC(=O)c1cc(-c2ccccc2)sc1NC(=O)CN1C(=O)NC(CC)(c2ccc(F)cc2)C1=O (stereo not given)	-10	-5	-10	-10	-17	.	i	-6
